Assay outcomes from PubChem BioAssay.
RanGTP-Impb inh: inhibitors of RanGTP-importin-beta interaction, primary screen, biochemical, FRET, CFP-Ran, YFP-importin-beta, homogeneous | cell-free CFP-Ran/YFP-importin-beta FRET ratio | inhibition, % (concentration not given with the values) | hit rate 1.1% among 300,000 | AID 2216;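 active = most replicates above 15%; inconclusive = exactly half above 15%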;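 also: 0% = DMSO wells and 100% = Ran loaded with GDP instead of GTP; wells of about 40 µL received 100 nL stock; the first replicate is given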
FGF22 binding: shifts melting point of recombinant human FGF22; Q9HCT0; hit rate 1.5% among 340,000; calls only at 9.99 µM; AID 651658; recombinant FGF22 thermal shift, SYPRO orange fluorescence; percent of sucrose octasulfate shift, DMSO zero;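 active = melting point raised past a set limit in the mean and every replicate; inconclusive = no clear call; three in four hits are not shown here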
Target sequence (Q9HCT0 whole entry, looked up): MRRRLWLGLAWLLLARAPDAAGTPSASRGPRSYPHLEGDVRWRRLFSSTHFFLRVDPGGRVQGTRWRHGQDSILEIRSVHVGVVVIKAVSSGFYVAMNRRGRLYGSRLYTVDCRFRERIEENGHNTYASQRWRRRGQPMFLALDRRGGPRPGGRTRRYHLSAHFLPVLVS
HNF4A DNA FP: change in binding of human HNF4 alpha to DNA; hit rate 0.3% among 360,000; activity change, % at 10 µM; AID 1224865; HNF4a-FITC DNA binding, fluorescence polarization, 1 h; in the data active = activity change above about 30%, passing the limit was not always enough;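 also: controls were the assay level and a saturating level of protein; the project sought stronger binding though the title names inhibitors; some compounds called inactive have numbers as strong as hits; positive values seem to mean higher polarization but the record does not say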
Ecoli growth: inhibitors of Escherichia coli growth | OD600, 23 h; hits give low values | OD600 absorbance (concentration not given with the values) | hit rate 0.21% among 330,000 | AID 1053175;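 active = OD600 absorbance below the run mean of sample wells minus 3.6 SD, in any replicate, cut at about 0.56 in these data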;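 also: stock transfer was 300 nL into about 60 µL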
AF4-AF9 inh: blocks AF4 peptide binding to human AF9 | AlphaScreen, biotin-AF4 peptide binding to FLAG-AF9 | AID 651704 | hit rate 0.47% among 350,000 | inhibition, % at 10 µM;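 active = every replicate reaching a set inhibition limit, whatever the replicate mean, cut at about 25% in these data; inconclusive = mean inhibition reaches that limit but some replicates miss it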;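 also: 0% = plate neutral control median and 100% = total signal loss; the record names both 10 and 1 µM as test concentration; the first replicate is given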
Target sequence (P42568 whole entry, looked up): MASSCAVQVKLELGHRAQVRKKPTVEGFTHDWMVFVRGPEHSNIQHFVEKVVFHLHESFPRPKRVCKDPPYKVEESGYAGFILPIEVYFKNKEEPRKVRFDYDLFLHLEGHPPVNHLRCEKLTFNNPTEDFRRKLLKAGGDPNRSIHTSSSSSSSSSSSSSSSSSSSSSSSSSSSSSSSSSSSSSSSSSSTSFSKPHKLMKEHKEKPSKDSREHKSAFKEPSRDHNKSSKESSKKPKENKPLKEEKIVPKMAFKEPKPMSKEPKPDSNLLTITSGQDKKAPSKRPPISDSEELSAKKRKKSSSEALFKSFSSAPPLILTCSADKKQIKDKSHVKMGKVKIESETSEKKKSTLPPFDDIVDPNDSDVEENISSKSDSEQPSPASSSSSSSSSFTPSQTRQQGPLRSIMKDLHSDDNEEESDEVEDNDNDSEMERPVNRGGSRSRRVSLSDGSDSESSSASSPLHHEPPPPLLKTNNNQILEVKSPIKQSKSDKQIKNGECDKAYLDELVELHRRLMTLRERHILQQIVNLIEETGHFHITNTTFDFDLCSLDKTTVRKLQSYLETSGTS
UCH37 DUB inh: human UCH37 deubiquitinating enzyme inhibition | inhibition, % (test concentration not listed) | purified proteasome/UCH37, Ub-AMC cleavage fluorescence | AID 588478 | hit rate 0.33% among 330,000;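 active = mean of two replicates above 20%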;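 also: 0% = compound-free wells with enzyme and 100% = wells lacking proteasome; stock transfer was 100 nL into about 20 µL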
Target sequence (Q9Y5K5 whole entry, looked up): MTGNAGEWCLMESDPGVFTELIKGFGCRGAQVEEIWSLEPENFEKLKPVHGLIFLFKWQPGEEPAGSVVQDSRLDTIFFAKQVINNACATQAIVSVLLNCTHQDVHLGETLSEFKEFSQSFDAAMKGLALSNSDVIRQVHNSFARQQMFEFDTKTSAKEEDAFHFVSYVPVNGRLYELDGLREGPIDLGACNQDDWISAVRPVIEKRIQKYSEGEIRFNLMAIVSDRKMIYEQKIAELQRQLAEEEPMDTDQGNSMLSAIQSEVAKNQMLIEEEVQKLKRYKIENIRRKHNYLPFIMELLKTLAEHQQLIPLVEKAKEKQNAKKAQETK
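Test system – human UCH37 enzyme supplied as purified proteasome complex · Incubation – 30 min preincubation with enzyme, 25 min cleavage at room temperature · Detection – AMC fluorescence from Ub-AMC cleavage, excitation 355 nm, emission 460 nm · Benchmarks – no-proteasome wells (full inhibition) and compound-free wells (no inhibition)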
Vif TR-FRET: HIV-1 Vif–A3G interaction blockers – biochemical, TR-FRET, GST-Vif 1-94, biotin-A3G peptide, dose response retest, primary screen (AID 1117319) | TR-FRET GST-Vif / biotin-A3G peptide binding; higher % means a stronger effect; test concentration not given here; strong numbers were not always called active | inhibition, %, or IC50 in µM where a hit was titrated | hit rate 0.57% among 260,000;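 active = above the screen mean plus three standard deviations and confirmed in dose response; inconclusive = results disagree or hit not tested in dose response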;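 also: Vif residues 1-94 fused to GST binding biotinylated APOBEC3G peptide 110-148; 0% = full assay without inhibitor and 100% = GST in place of GST-Vif; retest series ran down from 100 µM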
Starred values were filed as active, the others as inactive; i = inactive; ? = inconclusive; . = not tested or not shown; & = joins results of further samples. Some of the compounds tested; rates above refer to the full screens.

SMILES	RanGTP-Impb inh	FGF22 binding	HNF4A DNA FP	Ecoli growth	AF4-AF9 inh	UCH37 DUB inh	Vif TR-FRET
COc1ccc(C(=O)N2CC3(C)CC2CC(C)(C)C3)cc1 (stereo unspecified)	1.0	.	-1.9	0.71	.	1.7	73%
CCOC(=O)C1=C(N)Oc2c(oc(CO)cc2=O)C1c1ccc(F)c(F)c1 (stereo unspecified)	-1.2	i	3.6	0.71	-0.2	3.8	.
CCC(=O)Nc1cccc(C2=NOC3(C2)C[C@@H](C(N)=O)N(C(=O)CC(c2ccccc2)c2ccccc2)C3)c1 (stereo partly specified)	-3.5	i	-5.3	.	1.8	0.0	7%
Cc1ccc(S(=O)(=O)N(CCC(=O)O)c2ccccc2)cc1	3.8	.	3.2	0.67	.	3.8	5%
CCCn1c(SCC(=O)N2CC(=O)Nc3ccccc32)nc2ccccc21	-0.9	i	-0.3	0.67	-1.7	-0.5	.
O=C(CC(c1ccco1)C1CCCCC1=O)c1ccco1 (stereo unspecified)	-0.9	.	-1.4	0.77	.	1.2	13%
CCC(C)NC(=O)c1ccccc1NC(=O)/C(=C/c1ccc(OC)cc1)c1ccccc1 (stereo unspecified)	-2.2	.	6.9	0.7	.	4.5	-1%
CCc1cccc(Oc2nn[nH]n2)c1	4.1	i	0.9	0.68	-83	2.8	1%
Cn1cnc2c(N3CCCCC3)nccc21	2.6	.	0.9	0.73	.	-2.0	3%
O=C(O)CCn1c(=O)[nH]c(=O)n(CCC(=O)O)c1=O	1.6	i	0.3	0.62	-0.3	1.1	-2%
COc1ccccc1N1CCN(S(=O)(=O)CCNC(=O)c2cccs2)CC1	.	i	-3.5	.	1.6	.	2%
CC1(C(=O)Nc2ccc3c(c2)OCCO3)CCN1C(=O)CC1CCCC1 (stereo unspecified)	.	i	-0.9	.	-4.0	.	.
Cc1ccc(NC(=O)Cn2c(=O)oc3ccccc32)cc1	-1.0	i	2.1	0.69	-3.1	0.9	12%
COc1ccc(C(=O)N2CCN(C(=O)c3ccncc3)CC2)cc1	-1.0	.	2.0	0.68	.	0.1	6%
COc1ccc(NC(=O)CSc2nc3ccccc3c(=O)n2CCCN2CCC(C)CC2)c(OC)c1	7.5	.	2.9	0.68	3.0	1.3	0%
Cc1cccc(COc2ccc(/C=C3/C(=O)N(C)C(=S)N3C)cc2)c1	4.3	i	-1.3	0.72	3.2	4.6	0%
CC(Sc1nc2ccccc2c(=O)n1CC1CCCO1)C(=O)N(C)c1ccccc1 (stereo unspecified)	.	i	1.6	0.71	?	3.5	.
COCCNC(=O)C1(C)CCN(C(=O)c2cccc(C)c2C)C1 (stereo unspecified)	.	i	0.1	.	0.6	.	.
CCOC(=O)N1C(=O)[C@](CC)(c2ccccc2)N1C(=O)OCC	3.3	i	1.3	0.62	2.2	-1.6	.
CC1CC(C)(C)NC(=S)N1CCC(=O)NCc1ccc(Cl)cc1 (stereo unspecified)	3.3	.	-4.3	0.69	-0.6	1.5	-1%
CNC(=S)N1N=C(c2ccccc2)CC1c1ccccc1Cl (stereo unspecified)	-1.1	i	0.7	0.67	2.7	2.5	.
COC(=O)[C@@]1(Cc2ccccc2)[C@H]2C(=O)N(C)C(=O)[C@H]2[C@H]2CN=C(SCc3ccc(C#N)cc3)N21	.	i	3.0	0.7	3.5	-0.9	-7%
Cn1c(=O)[nH]c(=O)c2c1nc(N1CCOCC1)n2CC(O)COc1ccc2ccccc2c1 (stereo unspecified)	2.3	.	4.3	0.77	.	2.6	-1%&-4%
O=C1C2CC=C(Cl)CC2C(=O)N1CCc1c[nH]c2ccccc12 (stereo unspecified)	7.5	.	0.8	0.69	2.6	1.8	-2%
C=CCn1c(N)c(C(=O)OC(C)(C)C)c2nc3ccccc3nc21	29*	.	-3.8	.	.	.	-5%
COc1ccc(N2CCN(S(=O)(=O)c3ccc(-c4cnc(C5CC5)o4)cc3)CC2)cc1	-2.4	.	2.7	0.72	.	1.3	11%
O=C(NCCc1ccccn1)c1ccc2nc(Cc3ccccc3F)oc2c1	-0.4	i	0.1	0.71	-1.5	2.8	-4%
COc1ccc(CN(CC2CCC(C(=O)O)CC2)C(=S)Nc2ccccc2OC)cc1 (stereo unspecified)	9.6	i	-2.2	0.68	-2.8	5.5	-10%
Cc1cc(C(=O)NCc2ccco2)on1	-1.0	i	-0.9	0.68	2.2	2.7	28%
CC(=O)Nc1ccccc1Sc1ccccc1	-1.4	i	3.2	0.7	0.5	-0.7	0%
CC1CCc2c(sc(NC(=O)c3ccc(-c4ccccc4[N+](=O)[O-])o3)c2C#N)C1 (stereo unspecified)	2.2	.	7.3	0.7	.	8.2	2%
COCCNC(=O)NC(=O)CN1C(=O)NC(Cc2c[nH]c3ccccc23)C1=O (stereo unspecified)	3.2	i	1.1	0.64	1.3	-1.7	.
COc1ccc(-n2nc(C)cc2N)cc1	1.2	i	1.9	0.71	-1.0	2.4	-5%
O=C1CN(c2nc(-c3cccnc3)nc3sc4c(c23)CCCC4)CCN1	-3.8	i	3.4	0.68	1.8	-130	.
Cc1ccccc1Cn1cnc2c(NS(C)(=O)=O)c(C)c(C)cc21	1.2	.	0.4	0.71	.	0.4	-5%
O=C(COc1cccc(F)c1)Oc1ccc(C(=O)c2ccccc2)cc1	-1.1	i	-9.2	0.64	-4.1	5.2	.
COc1ccccc1CNC(=O)c1cc(-c2ccccc2)nn1Cc1cc(C)no1	-1.3	i	-0.9	0.7	.	4.2	.
Cc1cc(C)nc(SCc2ccc(Br)cc2)n1	1.3	i	-0.2	0.7	-0.2	-0.7	6%
Cc1ccc(C(NC(=O)N2CC(C)OC(C)C2)C(Cl)Cl)cc1F (stereo unspecified)	6.1	.	-2.2	0.67	.	5.9	-6%
S=C(c1ccc2c(c1)OCO2)N1CCCC1	-3.7	.	0.5	0.71	.	4.5	6%
COc1cccc(/C=N/NC(=O)c2ccc(-n3cnnn3)cc2)c1	.	i	-2.2	.	0.9	.	-2%
C=CCN=C1SC(C)C(=O)N1S(=O)(=O)c1ccccc1 (stereo unspecified)	-3.1	.	-3.6	0.73	.	2.7	0%
COc1ccc(CNC(=O)CSCc2ccccc2Cl)cc1	-2.1	.	-0.5	0.67	.	1.2	4%
CCCCn1c(N)c(N(CC)C(=O)c2ccccc2C)c(=O)[nH]c1=O	-3.1	i	1.9	0.65	-4.0	4.6	.
CN(C)/C=C/C(=O)c1ccc(F)cc1	7.1	.	0.8	0.7	.	14	6%
CC(=O)N1c2ccc(S(=O)(=O)NCCC(=O)NCc3ccc(F)cc3)cc2CC1C (stereo unspecified)	0.2	i	-3.4	0.65	-0.5	0.0	0%
CCSc1nnc(NC(=O)c2csc3c2CCCC3)s1	4.1	.	-1.0	0.74	.	-4.2	-17%
COc1ccc(CN2CC(=O)N(c3cc(Cl)ccc3OC)C2=S)cc1OC	0.5	i	6.3	0.64	-0.2	1.3	-7%
CC(C)NCC(O)c1ccc(O)c(O)c1 (stereo unspecified)	6.4	i	-0.7	0.67	-5.1	2.7	.
CN(C)C1(CNC(=O)C2CCN(S(=O)(=O)c3cccc(C(F)(F)F)c3)CC2)CCCCC1	2.0	i	-2.5	0.7	0.7	1.1	-3%

Further results follow.
SMILES	RanGTP-Impb inh	FGF22 binding	HNF4A DNA FP	Ecoli growth	AF4-AF9 inh	UCH37 DUB inh	Vif TR-FRET
COc1ccc2[nH]c3c(c2c1)CCN1C(=O)C(CC(=O)NCCCN(C)C)C[C@H](C(=O)N(C(C)C)C(C)C)[C@@]31C (stereo partly specified)	.	i	3.8	0.67	1.7	0.6	-1%
CCN(CC)C(=O)c1[nH]cnc1C(=O)Nc1ccon1	.	i	0.5	0.7	-1.6	-1.9	.
O=C(NCc1ccncc1)/C(=N/O)c1ccccc1	1.1	.	0.8	.	.	.	1%
CC(NC(=S)NCc1ccccc1)C12CC3CC(CC(C3)C1)C2 (stereo unspecified)	3.1	i	-0.6	0.76	-2.0	3.7	-6%
COc1ccc(C2CC(c3ccc4ccccc4c3OC(C)=O)=NN2C(=O)/C=C/c2ccccc2)cc1 (stereo unspecified)	?	i	-3.8	0.74	4.8	-13	.
Cc1c(C=Nc2ccc(S(=O)(=O)N(C)C)cc2)c(O)[nH]c(=O)c1C#N	-6.8	i	0.3	0.68	1.0	8.5	.
CCOC(=O)[C@]12CCC=C1N(Cc1ccco1)C(=O)[C@H](CC(=O)NCCCCc1ccccc1)C2	.	i	-0.7	.	-3.1	.	.
O=C(N/N=C/c1ccsc1)c1ccc2c(c1)OCO2	.	i	-3.1	.	2.4	.	7%
CCOc1ccc(NC(=O)CN2CCN(C(=O)C3CCCO3)CC2)cc1 (stereo unspecified)	-1.6	i	6.5	0.68	-7.6	4.3	.
Cc1ccccc1CC(=O)Nc1ccon1	2.9	i	-0.6	0.66	2.2	-0.1	.
Cn1c(=O)c(Sc2ccccc2)c(O)c2ccccc21	-0.9	i	2.1	0.62	-5.6	-1.3	.
CS(=O)(=O)Nc1cccc(-c2cc(NC=O)c3ncc(-c4ccc(F)cc4)n3c2)c1	.	i	4.8	.	0.8	.	.
COc1ccc(OCC(O)CN2CCCC2)cc1 (stereo unspecified)	0.3	i	-0.1	0.68	-4.0	5.1	4%
C=CCOn1c(=O)c(-c2cccs2)[n+]([O-])c2ccccc21	?	.	-2.4	0.71	.	-13	2%
CSc1ncccc1C(=O)Nc1cccc(C)n1	-3.6	i	-0.4	0.73	-0.1	-0.9	-3%
Cc1cccc(C)c1NC(=S)Nc1c(C)n(C)n(-c2ccccc2)c1=O	0.5	i	1.7	0.66	0.1	1.8	4%
c1ccc(Cn2cc(-c3ccccc3)cn2)cc1	.	i	-0.3	0.57	-12	0.4	.
CC1CN(C(=O)c2c(Br)cnn2C)CC(C)O1 (stereo unspecified)	-3.2	.	2.1	0.69	.	1.6	.
O=C(NC1CCN(C(=O)Nc2ccccc2Cl)CC1)c1ccccc1	1.3	i	1.1	0.64	-2.0	-1.7	10%
C=CCOc1ccc(/C=C/C(=O)OCC(=O)NCC2CCCO2)cc1 (stereo unspecified)	.	i	0.1	0.65	3.7	-0.8	-8%
N=C1C(=O)OCC1c1cc(Cl)ccc1NC(=O)Nc1ccccc1 (stereo unspecified)	-0.6	.	-2.1	0.72	.	-0.5	.
Cc1nc(C(F)(F)F)ccc1C(=O)Nc1ccccc1N1CCOCC1	2.2	i	1.9	0.72	-1.6	4.4	.

Shown with two lines to a compound: six of the compounds above
The line under a structure holds: RanGTP-Impb inh	FGF22 binding	HNF4A DNA FP	Ecoli growth	AF4-AF9 inh	UCH37 DUB inh	Vif TR-FRET
Cc1cccc(C)c1NC(=S)Nc1c(C)n(C)n(-c2ccccc2)c1=O
 : 0.5	i	1.7	0.66	0.1	1.8	4%
Cn1c(=O)c(Sc2ccccc2)c(O)c2ccccc21
 : -0.9	i	2.1	0.62	-5.6	-1.3	.
Cc1nc(C(F)(F)F)ccc1C(=O)Nc1ccccc1N1CCOCC1
 : 2.2	i	1.9	0.72	-1.6	4.4	.
N=C1C(=O)OCC1c1cc(Cl)ccc1NC(=O)Nc1ccccc1 (stereo unspecified)
 : -0.6	.	-2.1	0.72	.	-0.5	.
CS(=O)(=O)Nc1cccc(-c2cc(NC=O)c3ncc(-c4ccc(F)cc4)n3c2)c1
 : .	i	4.8	.	0.8	.	.
CC1CN(C(=O)c2c(Br)cnn2C)CC(C)O1 (stereo unspecified)
 : -3.2	.	2.1	0.69	.	1.6	.
